ClpP mod = qHTS Assay for Activators of ClpP | Potency, µM (doses to about 57.5 µM), for inactives: at the highest dose activity change, negative = active | ATP-dependent Clp protease proteolytic subunit (Bacillus subtilis (strain 168)), P80244 | actives 1.9% (n = 340,000) | AID 651965, 2013 | purified B. subtilis ClpP, FRET peptide cleavage, 20 min; active = well fitted falling curve with a large enough effect; inconclusive = small, poorly fitted or top-dose-only effect; inactive = no such curve, though single readings can be large or run the other way; further: potency means the concentration at half of the fitted maximal effect; the source files actives as falling curves though it sought activators and does not explain the sign; nearly all actives have a fitted effect of over 65% in size; many hits overshoot -100%
Target sequence (P80244 whole entry, looked up): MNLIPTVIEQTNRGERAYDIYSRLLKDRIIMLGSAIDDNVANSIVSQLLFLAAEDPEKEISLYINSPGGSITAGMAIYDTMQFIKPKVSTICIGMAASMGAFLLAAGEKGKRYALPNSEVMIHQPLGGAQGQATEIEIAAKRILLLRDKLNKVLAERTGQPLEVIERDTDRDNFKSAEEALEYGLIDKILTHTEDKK
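Purified B. subtilis ClpP, 10 microg/mL final in Tris/HCl pH8 with KCl, BSA, glycerol and Tween-20, cleaved an Abz/nitrotyrosine-quenched decapeptide. Fluorescence (ex 320, em 430) was read at 0 and 20 min at room temperature. Delta was normalized to 5.8 microM ADEP and DMSO/no-enzyme controls.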
PINK1 modulator = A Quantitative High throughput Screen to Identify Chemical Modulators of PINK1 Expression; PINK1 immunofluorescence, high-content cytometry, 24 h; Potency, µM (titrated, usually from 76.6 µM), for inactives: at the highest dose activation (PINK1 increase), hits mostly activators; actives 0.2% (n = 410,000); AID 624263, 2012; active = well fitted activation curve with a large enough effect; inconclusive = small, poorly fitted or top-dose-only effect; inactive = flat fitted curve, though single readings scatter; cell line not stated here;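 further: potency means the concentration at half of the fitted maximal effect; % of control where 0% means no effect; nearly all actives have a fitted effect of over 65% in size; a mitochondrial uncoupler was the plate control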
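PINK1 protein, normally rapidly degraded, was detected by immunofluorescence after 24 hour compound treatment of a stable cell line. Titration data (5 concentrations) came from laser-scanning cytometry, with CCCP-treated wells as controls.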
Menin MLL FP FL = qHTS Assay for Inhibitors Targeting the Menin-MLL Interaction in MLL Related Leukemias: Competition With Fluorescein Labeled MLL-derived Peptide; 290,000 tested, under 10 active; Fluorescence polarization, fluorescein-MLL peptide displacement from menin; FP activity change, % at 61.4 µM; inconclusive = falling polarisation curve, or a change in total fluorescence; inactive = total fluorescence flat and polarisation flat or rising; no compound was filed as active; the % refers to the polarisation; negative = inhibition;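 further: % of control where 0% means no effect; inhibitors lower the polarisation; unlabelled MLL peptide was the positive control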
gsp agonist = qHTS for Agonist of gsp, the Etiologic Mutation Responsible for Fibrous Dysplasia/McCune-Albright Syndrome: qHTS | gsp mutant cells, cAMP HTRF, 30 min; control for the full effect not named in the record | Potency, µM (titrated, usually from 76.9 µM), for the others: at the highest dose activation (cAMP increase), actives largely listed as activators | actives 0.13% (n = 340,000) | AID 624287, 2012; active = well fitted activation curve with a large enough effect; inconclusive = small, poorly fitted or top-dose-only effect, or another doubt; inactive = no such curve, though single readings can be large or run the other way; cell line not stated here;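 further: phosphodiesterase inhibitor Ro 20-1724 added with compounds to block cAMP breakdown; potency means the concentration at half of the fitted maximal effect; nearly all actives have a fitted effect of over 60% in size; about a fifth of the inactives were tested at one dose only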
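Cells in DMEM/10% FBS with G418 were pretreated with compounds in DMSO plus […] (300 uM stock) for 30 min at 37C. cAMP was measured by HTRF (cAMP-d2 plus anti-cAMP antibody-K) after 30 min at room temperature.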
gsp antag = qHTS for Antagonists of gsp, the Etiologic Mutation Responsible for Fibrous Dysplasia/McCune-Albright Syndrome: qHTS. gsp-mutant cells, cAMP HTRF, 30 min; control for the full effect not named in the record. Potency, µM (series often up to 76.9 µM), inactives show top-dose activity change, negative = inhibition, actives largely listed as inhibitors. actives 0.4% (n = 340,000). AID 624288, 2012; active = falling curve of any shape with a large fitted effect; inconclusive = falling curve, mostly with a smaller effect; inactive = flat or rising curve; cell line not stated here;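 further: intracellular cAMP measured with PDE inhibitor Ro 20-1724 present during compound exposure; potency means the concentration at half of the fitted maximal effect; on the % scale 0 is the no-effect control and ±100 the full control effect; nearly all actives have a fitted effect of over 65% in size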
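Cells, 2000/well, grown 16–24 h in DMEM 10% FBS with 0.5 mg/ml G418, then compounds plus […] (300 uM addition stock), 30 min at 37C. cAMP read by HTRF (cAMP-d2 and anti-cAMP antibody-K in lysis buffer) after 30 min RT.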
D2 ag = Beta-Arrestin HTS for Positive Allosteric Modulators of the Human D2 Dopamine Receptor: Agonists | DiscoveRx PathHunter D2 beta-arrestin, luminescence, 90 min; 100% = 57 uM dopamine signal | activation, % (no concentration beside the values) | actives 0.084% (n = 360,000) | AID 624465, 2012; in the data active = activation above about 40%; inconclusive = about 15% to 40%; inactive = below about 15%; further: compound concentration not given in the record; the text of the record calls up to 30% inactive
Target sequence (P14416 whole entry, looked up): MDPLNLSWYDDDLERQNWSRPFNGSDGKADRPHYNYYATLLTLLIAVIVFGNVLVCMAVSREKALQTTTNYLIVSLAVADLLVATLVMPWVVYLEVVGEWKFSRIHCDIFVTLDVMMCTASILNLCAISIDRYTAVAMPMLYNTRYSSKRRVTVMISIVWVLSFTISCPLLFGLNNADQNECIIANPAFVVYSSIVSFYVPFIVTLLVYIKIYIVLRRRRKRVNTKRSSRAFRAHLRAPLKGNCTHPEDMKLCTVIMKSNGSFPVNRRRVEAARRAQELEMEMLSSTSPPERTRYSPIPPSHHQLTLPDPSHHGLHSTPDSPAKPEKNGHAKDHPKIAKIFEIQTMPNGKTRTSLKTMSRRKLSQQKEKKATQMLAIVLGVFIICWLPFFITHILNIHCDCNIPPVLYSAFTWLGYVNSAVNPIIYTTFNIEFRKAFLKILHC
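DiscoveRx PathHunter D2 beta-arrestin cells (2,100/well) attached overnight, then compound-stimulated 90 min at 37 C in HBSS/10 mM HEPES/0.1% Tween-20 buffer; beta-galactosidase complementation read by luminescence after 1 h at ambient temperature. Dopamine 57 uM final (EC100) as control.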
Sfp PPTase inh = qHTS Assay for Inhibitors of Bacillus subtilis Sfp phosphopantetheinyl transferase (PPTase) | 4'-phosphopantetheinyl transferase ffp (Bacillus subtilis), Q9F4F7 | Biochemical Sfp PPTase activity, qHTS | Potency, µM, without a hit: max response, negative = inhibition, hits mostly inhibitors | actives 3.5% (n = 310,000) | AID 1490, 2009; active means well fitted inhibition curve with a large enough effect; inconclusive means small, poorly fitted or top-dose-only effect, or another doubt; inactive means no such curve, though single readings can be large or run the other way;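 further: the enzyme is Sfp with the accession as filed and its product quenches rhodamine fluorescence; potency means the concentration at half of the fitted maximal effect; 0% = enzyme reaction without inhibitor and -100% = no enzyme wells; top concentration of the series not given in the record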
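After 15 min at room temperature with compound, 15 nM Sfp received 5 uM rhodamine-CoA plus 12.5 uM BHQ-2-ybbR (50 mM Hepes pH 7.6, 10 mM MgCl2). Rate came from the fluorescence difference over 30 min, ex 525/em 598 nm.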
* = called active by the depositor; [ ] = dose if it differs, or a comment. Compounds were not picked by outcome; about 5.1% have a hit in one of these screens.

For CN(CC(=O)Nc1ccc(Cl)c(C(F)(F)F)c1)C(=O)c1ccc(S(=O)(=O)N2CCOCC2)cc1 the results were ClpP mod -2.0%, PINK1 modulator 8.6%, gsp agonist 0%, gsp antag -6% and D2 ag -0.3.
`Cc1ccc(C(=O)NNC(=O)CCCCC(=O)NNC(=O)c2ccc(C)cc2)cc1` gave PINK1 modulator 4.2%, Menin MLL FP FL 2.9, gsp agonist 6%, gsp antag 11%, D2 ag 2.9 and Sfp PPTase inh 20%.
For O=C(OCc1c(-c2ccccc2)ncc2ccccc12)c1ccc(Br)cc1 the results were ClpP mod -18%, PINK1 modulator 0.5%, gsp agonist 7%, gsp antag -6% and D2 ag -2.0.
Screening Cc1ccc(Nc2cc(=O)oc3ccccc23)c(C)c1 returned ClpP mod -1.0%, Menin MLL FP FL 1.1, gsp agonist 16%, gsp antag 18%, D2 ag -2.1 and Sfp PPTase inh 14%.
Screening O=C(Nc1nccs1)c1cc2sccc2n1Cc1ccc(F)cc1 returned ClpP mod -22%, PINK1 modulator inconclusive, Menin MLL FP FL 5.1, gsp agonist -8%, gsp antag 6%, D2 ag 2.4 and Sfp PPTase inh -16%.
Screening Cn1cc(C(=O)c2cccc(Cl)c2Cl)cc1C(=O)O returned ClpP mod -2.4%, PINK1 modulator -3.2%, Menin MLL FP FL -4.4, gsp agonist -28%, gsp antag 0%, D2 ag -3.4 and Sfp PPTase inh 10%.
CC1C(=O)N2CCCc3cc(S(=O)(=O)NCc4ccc(Cl)cc4)cc1c32 (stereo unspecified) was read as ClpP mod -1.0%, PINK1 modulator 2.7%, gsp agonist inconclusive, gsp antag -14%, D2 ag -3.1 and Sfp PPTase inh 11%.
CC(C)CC(=O)NC(=S)NCCc1ccccc1 was read as ClpP mod 0.5%, PINK1 modulator -1.8%, Menin MLL FP FL 6.2, gsp agonist inconclusive, gsp antag -4%, D2 ag -3.1 and Sfp PPTase inh -8%.
`Cc1cccc(NC(=O)N2CCC(C(=O)c3ccc(F)cc3)CC2)c1` gave PINK1 modulator 1.3%, Menin MLL FP FL -0.6, gsp agonist -42%[15.4 µM], gsp antag -12%, D2 ag 9.0 and Sfp PPTase inh 19%.
Screening CC(/C=C1\SC(=S)N(c2ccc(C(=O)O)cc2)C1=O)=C\c1ccccc1 returned ClpP mod -0.2%, PINK1 modulator -0.4%, Menin MLL FP FL inconclusive, gsp agonist 3%, gsp antag -6%, D2 ag -5.6 and Sfp PPTase inh -13%.
For COc1cccc(NC(=O)CN(C)C(=O)Cn2[nH]c(=O)c3ccccc3c2=O)c1 the results were ClpP mod -3.0%, PINK1 modulator 2.5%, gsp agonist -4%, gsp antag 11% and D2 ag -1.8.
For Cc1ccc(NC(=O)COC(=O)C2COc3ccccc3O2)cc1S(=O)(=O)N1CCOCC1 (stereo unspecified) the results were ClpP mod -2.3%, PINK1 modulator 3.2%, Menin MLL FP FL -0.8, gsp agonist inconclusive, gsp antag -11%, D2 ag -0.8 and Sfp PPTase inh 12%.
For O=C(Nc1cccc(-n2cnnn2)c1)c1ccc(Cl)cc1Cl the results were ClpP mod 3.0%, PINK1 modulator 1.2%, Menin MLL FP FL -0.1, gsp agonist -36%, gsp antag -8%, D2 ag 3.1 and Sfp PPTase inh 16%.
CC(=O)N1CCN(c2ccc(Nc3ncnc4c3oc3ccccc34)cc2)CC1 was read as ClpP mod -1.0%, PINK1 modulator 3.2%, Menin MLL FP FL -2.3, gsp agonist 3%, gsp antag 28µM*, D2 ag 7.2 and Sfp PPTase inh -5%.
Cc1cccc(NC(=O)c2ccc(OCc3c(C)noc3C)cc2)n1 was read as ClpP mod -1.4%, PINK1 modulator -0.6%, gsp agonist 6%, gsp antag -2% and D2 ag -3.4.
N#Cc1ccc(-c2nc3ccc(Cl)cn3c2Cc2cccc(Cl)c2)cc1 was read as ClpP mod 4.9%, PINK1 modulator 3.4% and D2 ag -6.5.
Cc1cc([N+](=O)[O-])ccc1NC(=O)c1cccc(NC(=O)C(C)C)c1 was read as ClpP mod 0.8%, PINK1 modulator 1.6%, Menin MLL FP FL 0.1, gsp agonist 3%, gsp antag 0%, D2 ag -3.1 and Sfp PPTase inh 11%.
CCOc1c(OC(C)=O)ccc(/C=C/c2ccc3cccc(OC)c3n2)c1[N+](=O)[O-] was read as ClpP mod 1.5%, PINK1 modulator 11%, Menin MLL FP FL -0.5, gsp agonist -5%[15.4 µM], gsp antag inconclusive, D2 ag -6.9 and Sfp PPTase inh 4%.
Screening Cn1nc([N+](=O)[O-])nc1Sc1nnnn1-c1ccc(C(=O)O)cc1 returned PINK1 modulator 0.6%, Menin MLL FP FL 1.5, gsp agonist -2%, gsp antag 4%, D2 ag 2.1 and Sfp PPTase inh 7%.
Screening CCOc1ccc(NC(=O)COc2ccc(C(=O)NC(C)c3ccc(S(N)(=O)=O)cc3)cc2OC)cc1 (stereo unspecified) returned ClpP mod -0.2%, PINK1 modulator -0.3%, gsp agonist -64%[inhibitor], gsp antag 8% and D2 ag -1.3.
`CCc1nnc(NC(=O)CC23CC4CC(CC(C4)C2)C3)s1` gave ClpP mod -1.1%, PINK1 modulator 11%, Menin MLL FP FL -4.0, gsp agonist 18%, gsp antag 10%, D2 ag -8.7 and Sfp PPTase inh 19%.
`Cc1ccc(/C=N/N2CCN(Cc3ccc(Cl)cc3)CC2)o1` gave ClpP mod -1.7%, PINK1 modulator 1.2%, Menin MLL FP FL -1.8, gsp agonist inconclusive, gsp antag 3%, D2 ag -1.7 and Sfp PPTase inh 25µM*.
N#Cc1ccc(NC(=O)Nc2ccc(Cl)cc2)cc1 was read as ClpP mod 0.4%, PINK1 modulator inconclusive, Menin MLL FP FL 0.1, gsp agonist -26%, gsp antag -16%, D2 ag 9.3 and Sfp PPTase inh -10%.
For CC1CCCCC1NC(=O)c1nn(C)c2c1CS(=O)(=O)c1ccccc1-2 (stereo unspecified) the results were ClpP mod -5.4%, PINK1 modulator 1.1%, Menin MLL FP FL -5.5, gsp agonist 5%, gsp antag -3%, D2 ag -3.4 and Sfp PPTase inh 0%.
Screening O=C(CCc1ccccc1)Nc1ccc(Cl)cn1 returned ClpP mod 0.1%, PINK1 modulator 0.3%, Menin MLL FP FL -1.8, gsp agonist -35%[inhibitor], gsp antag 26%, D2 ag 0.7 and Sfp PPTase inh -3%.
`Cc1cccc(Oc2cc([N+](=O)[O-])cc3c2C(=O)Nc2ccccc2O3)c1` gave ClpP mod 2.7%, PINK1 modulator 17%, Menin MLL FP FL 14, gsp agonist 3%, gsp antag -22%, D2 ag -5.2 and Sfp PPTase inh 3%.
Screening COCCn1c(C)cc(C(=O)CSc2nc3ccccc3c(=O)n2C(C)COC)c1C (stereo unspecified) returned PINK1 modulator 1.0%, Menin MLL FP FL -14, gsp agonist -73%[inhibitor], gsp antag -18%, D2 ag 2.1 and Sfp PPTase inh -26%.
For CN1C[C@@H]2[C@@H]3C(=O)N(Cc4ccccc4)C(=O)[C@@H]3[C@](Cc3ccccc3)(C1=O)N2C(=O)c1ccc(C(F)(F)F)cc1 the results were ClpP mod 0.3%, PINK1 modulator -0.9%, gsp agonist 18%, gsp antag 4% and D2 ag -1.9.
COc1ccc(NC(=O)N(C)C[C@H]2Oc3ccc(NC(=O)c4ccncc4)cc3C(=O)N([C@H](C)CO)C[C@@H]2C)cc1 was read as ClpP mod -2.4%, PINK1 modulator -2.2%, gsp agonist 5%, gsp antag 6% and D2 ag 0.1.
Screening COc1ccc2c(CC(=O)Nc3cccc(S(=O)(=O)N4CCOCC4)c3)coc2c1 returned ClpP mod 3.3%, PINK1 modulator 1.2%, Menin MLL FP FL -3.4, gsp agonist -11%, gsp antag -18%, D2 ag 0.1 and Sfp PPTase inh 15%.
For CCN(C[C@H]1N[C@@](Cc2ccccc2)(C(=O)OC)[C@H]2C(=O)N(Cc3ccccc3)C(=O)[C@@H]12)S(=O)(=O)c1ccc(F)cc1 the results were ClpP mod 0.3%, PINK1 modulator 1.0%, gsp antag -5% and D2 ag 0.9.
For Cc1cc(C(=O)Nc2ccc3c(c2)OCCO3)c2ccccc2n1 the results were PINK1 modulator 16%, Menin MLL FP FL -1.6, gsp agonist -2%[15.4 µM], gsp antag -13%, D2 ag -0.6 and Sfp PPTase inh 18%.
COc1cc(NC(=O)c2onc(C)c2Cl)c(OC)cc1Cl was read as ClpP mod -2.2%, PINK1 modulator 5.8%, Menin MLL FP FL 1.5, gsp agonist -16%, gsp antag -7%, D2 ag -5.9 and Sfp PPTase inh 10%.
`CSCC[C@H](NC(=O)c1cccs1)C(=O)N1CCC2(CC1)NCCc1[nH]cnc12` gave ClpP mod 1.7%, PINK1 modulator -0.8%, Menin MLL FP FL 1.6, gsp agonist -24%, gsp antag 23%, D2 ag -0.8 and Sfp PPTase inh 4%.
For CCCCCC/C(C=O)=C\c1ccccc1 the results were ClpP mod 2.0%, PINK1 modulator 2.0%, gsp antag -6% and D2 ag -2.1.
For CC(=O)NN1C(=O)c2ccccc2NC1c1ccccn1 (stereo unspecified) the results were ClpP mod 1.2%, PINK1 modulator 2.4%, Menin MLL FP FL 0.2, gsp agonist -6%[15.4 µM], gsp antag 17%, D2 ag -7.7 and Sfp PPTase inh 2%.
NNC(=O)COc1ccc(F)cc1 was read as ClpP mod -2.8%, PINK1 modulator -1.4%, Menin MLL FP FL -1.5, gsp agonist -5%, gsp antag -3%, D2 ag -3.3 and Sfp PPTase inh 18%.
`COc1ccc(/C=C2\SC(=S)N(CCC(=O)N3CCCCC3)C2=O)cc1` gave PINK1 modulator 0.8%, Menin MLL FP FL 7.8, gsp agonist 24%[15.4 µM], gsp antag 0%, D2 ag -6.3 and Sfp PPTase inh 20%.

Assay outcomes as filed in PubChem BioAssay.
